Screening data: PubChem, ICCB-Longwood Screening Facility, Harvard Medical School
Sa growth inh – inhibitors of Staphylococcus aureus growth at 42 °C. S. aureus RN4220 growth, OD600, 20 h; hits give low values. relative growth, % (concentration not given with the values). 170,000 tested, 0.53% active. AID 720641;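 active = growth at 42 °C up to 50% and 20 or more points under that at 30 °C, or under 10% at both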;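 also: 300 nL library stock went into each well; scaled to the means of positive and negative controls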
HCMV NEC inh – inhibitors of HCMV UL50-UL53 nuclear egress complex interaction; HTRF UL50-UL53 interaction, normalized percent inhibition; inhibition, % (no concentration beside the values); 190,000 tested, 0.15% active; AID 1918969;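 active = both replicates at 50% or more, plus weaker picks with an unusually low signal ratio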;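 also: stock transfer was 100 nL into about 20 µL; 0% = negative control wells and 100% = wells with untagged competitor protein; inactives centre near -12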
GIV-Gai inh – inhibitors of GIV GBA-motif binding to rat Galpha-i3; Galpha-i3/FITC-GIV peptide fluorescence polarization, 90 min; hits give low values; scaled: aluminum fluoride 0%, vehicle 100%; 210,000 tested, 0.42% active; percent of control (FP), % (concentration not given with the values); P08753;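 active = replicate mean at 85% of control or lower, very high polarization wells dropped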;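 also: wells of about 15 µL received 100 nL stock; the first replicate is given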
Target sequence (P08753 whole entry, looked up): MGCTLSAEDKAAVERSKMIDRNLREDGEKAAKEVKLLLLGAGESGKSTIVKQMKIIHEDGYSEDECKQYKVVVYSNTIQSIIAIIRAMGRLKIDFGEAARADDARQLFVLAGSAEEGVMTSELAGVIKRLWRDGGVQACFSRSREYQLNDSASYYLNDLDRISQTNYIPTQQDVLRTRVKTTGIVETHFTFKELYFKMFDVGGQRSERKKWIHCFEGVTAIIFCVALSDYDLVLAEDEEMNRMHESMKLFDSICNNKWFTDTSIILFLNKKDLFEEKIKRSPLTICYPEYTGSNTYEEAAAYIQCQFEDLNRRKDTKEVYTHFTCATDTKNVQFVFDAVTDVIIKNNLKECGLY
Sa growth inh second temp – further read-out of Sa growth inh, marked with its call; relative growth, %; measured here: growth at 30 °C;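 optical density after 20 h as mean of two plates; 100% = untreated growth and lower means inhibition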
Active calls of the source: *; nt = not tested or not shown; & = joins results of further samples.

SMILES	Sa growth inh	Sa growth inh second temp	HCMV NEC inh	GIV-Gai inh
CC1(C(=O)NC2CCCC2)Cn2c(ccc2-c2ccccc2)C(=O)N1Cc1ccccc1Cl (stereo unspecified)	nt	nt	-7	97
Cc1ccc(-c2nc3n(CC(=O)NC(C)C)c4c(c(=O)n3n2)CCC4)cc1	nt	nt	-5	103
CC(C)C(C(=O)O)N1C(=O)/C(=C/C=C/c2ccco2)SC1=S (stereo unspecified)	86	47	82*	58*
CCOC(=O)c1ccc(NC(=O)c2csc3c2CCCC3)cc1	98	54	-4	98
CC(=O)OCCn1nc(C)c2ccccc2c1=O	95	85	2	106
O=C(NCCC1=CCCCC1)C1CCN(c2ccc(-c3ccc(F)cc3)nn2)CC1	nt	nt	3	100
CCc1cccc(C)c1Nc1c(-c2ccsc2)nc2ncccn12	91	74	-38	125
Cc1c(Cl)cccc1NC(=O)Cn1c(=O)n(Cc2ccco2)c(=O)c2sc3ccccc3c21	102	84	8	100
CCOC(=O)c1c(C)[nH]c(C(=O)CN2C(=O)NC(CC)(c3ccc(F)cc3)C2=O)c1C (stereo unspecified)	105	80	-19	nt
Cc1ccccc1Cn1c(=O)n(CCc2ccccc2)c(=O)c2ccccc21	89	92	12	109
CCc1ccc(-c2cc(C)no2)cc1S(=O)(=O)N(C)Cc1ccccc1	78	83	-35	104
CSc1cccc(NC(C#N)c2ccccc2)c1 (stereo unspecified)	84	71	-4	101
CS(=O)(=O)NCC(c1ccco1)N1CCCCC1 (stereo unspecified)	82	90	-24	nt
COc1ccc(NC(=O)c2ccco2)cc1NC(=O)COc1ccc(C)c(C)c1	86	76	-81	106
CCc1ccc(NC(=O)CSc2nc3c([nH]c4ccccc43)c(=O)n2-c2cccc(OC)c2)cc1	83	68	nt	103
O=C(CCc1ccc(S(=O)(=O)N2CCCCCC2)cc1)Nc1nnc(C2CC2)s1	106	97	-23	nt
COc1ccc(/C(N)=N/O)cc1OC1CCCC1	100	87	-12	101
N#C/C(=C\Nc1cccc(C(F)(F)F)c1)c1nc2ccccc2[nH]1	95	84	0	103
COc1cccc(NC(=O)N2CCC(N(C)C(C)C)CC2)c1	89	87	-14	102
CCc1ccc(N(C)C(=O)CN2Cc3ccccc3C2=O)cc1	98	98	-1	111

An excerpt of these results, bar-delimited.
SMILES | Sa growth inh | Sa growth inh second temp | HCMV NEC inh | GIV-Gai inh
N#C/C(=C\Nc1cccc(C(F)(F)F)c1)c1nc2ccccc2[nH]1 | 95 | 84 | 0 | 103
COc1cccc(NC(=O)N2CCC(N(C)C(C)C)CC2)c1 | 89 | 87 | -14 | 102

Remaining list, next part:
SMILES	Sa growth inh	Sa growth inh second temp	HCMV NEC inh	GIV-Gai inh
COC(=O)c1sc(SC)c(C#N)c1-c1ccco1	105	95	-26	105
CN(C)C(=O)CSc1nc2ccccc2o1	113	86	-34	nt
Cc1cccc(N2CCN(C(=O)c3ccc4c(Cl)c5c(nc4c3)CCCC5)CC2)c1C	101	89	-46	102
CC(C)C(=O)NCC(c1cccnc1)N1CCN(c2ccccc2)CC1 (stereo unspecified)	106	91	-26&-18	106&105
CCc1ccc(NC(=O)Nc2nnc(N(CC)c3ccccc3)s2)cc1	94	93	nt	102
Cc1ccc(OC(=O)/C=C/c2cccs2)cc1	99	90	-12	nt
COc1ccc(NC(=O)N2Cc3c(sc4c3CCN(C)C4)-n3cccc3C2C)cc1OC (stereo unspecified)	nt	nt	-30	102
O=C(Nc1cccc(Cl)c1)C1CCC(=O)N1S(=O)(=O)c1ccc(F)cc1 (stereo unspecified)	nt	nt	-11	106
CCCCNC(=O)N1CCCN(c2ccc(C#N)cn2)CC1	102	95	10	104
Cc1c(C)n(C(=O)CN2CCc3ccccc32)c2ccccc12	102	98	-12	121
CCn1c2ccccc2c2nnc(N3CCN(c4ccccc4)CC3)nc21	96	91	-8	110
COc1ccc(-c2nnc(C3CCN(S(=O)(=O)c4ccc(F)c(C)c4)CC3)o2)cc1	99	96	0	107
CC1CCCC(C)N1CC(O)COc1c(F)cc(Br)cc1F (stereo unspecified)	104	78	-15	nt
O=C(O)C1C2C=CC(C2)C1C(=O)NCc1cccc(Cl)c1 (stereo unspecified)	100	101	-2	97
O=C(NCc1ccccc1Br)C1CCCO1 (stereo unspecified)	118	103	-8	106
COC(=O)c1ccc(CN2CCN(CCN3C(=O)c4cccc5cccc(c45)C3=O)CC2)cc1	nt	nt	-35	97
O=c1[nH]c(CSc2nnnn2C2CCCC2)nc2ccccc12	63	69	-24	nt
CC(OC(=O)c1ccco1)C(=O)NC1CCCC1 (stereo unspecified)	67	83	3	104
CC(C)CNC(=O)Nc1cc2c(cc1N1CCOCC1)n(C)c(=O)n2C	nt	nt	-11	100
Cn1nc(C(=O)NCc2ccccc2)c2c1CCN(C(=O)C1CCC1)C2	nt	nt	5	106
COc1cccc(-c2noc(CN3C(=O)COc4cc(C(C)(C)C)ccc43)n2)c1	nt	nt	-24	102
CC(C)(C)c1ccc(C(=O)NCCc2csc(-c3ccc(Cl)cc3)n2)cc1	88	86	nt	105
CCC(=O)Nc1ccccc1Sc1nc(Cl)nn1Cc1ccccc1	nt	nt	0	99
CCn1nc(C)c(CNC(=O)NCC2CCCO2)c1C (stereo unspecified)	nt	nt	-28	102
CCc1noc(C)c1C(=O)Nc1sc(C(=O)N(C)C)c(C)c1C(=O)OC	105	104	-8	111
Cc1noc2nc(C)n(Cc3cccc(F)c3)c(=O)c12	nt	nt	-9	111
CC1=C(C(=O)OC2CCCCCCC2)C(c2ccc(Br)cc2)NC(=O)N1 (stereo unspecified)	nt	nt	-8	102
CCOc1ccc(NC(=O)Nc2ccc3c(c2)N(C)C(=O)CS3)cc1	nt	nt	-25	109
COc1ccc(N(Cc2cc(C)on2)S(=O)(=O)c2cc(C)ccc2C)cc1	90	97	-42	nt
OCC1N=C(c2ccccn2)OC1c1ccccc1 (stereo unspecified)	101	85	-2	108
CCOC(=O)CNc1nc2ccccc2n2c(C)nnc12	112	93	-15	100
O=C(Cn1cnnn1)OCC(=O)c1ccc(Cl)s1	105	95	-22	nt
CCOC(=O)c1c(NC(=O)c2cc3n(n2)C(C(F)(F)F)CC(c2ccccc2)N3)sc2c1CCC2 (stereo unspecified)	nt	nt	-10	93
Cc1ccc(C2C3=C(CC(C)(C)CC3=O)NC3=C2C(=O)c2ccccc23)cc1 (stereo unspecified)	88	86	nt	107
CCC(Sc1nc2ncccc2[nH]1)C(=O)Nc1ccccc1Cl (stereo unspecified)	nt	nt	-6	99
CCn1c2ccccc2c2cc(/C=N/NC(=O)Cc3cccs3)ccc21	96	102	-30	96
O=C(NC1CC1)c1cccc(NC(=O)C2COc3ccccc3C2)c1 (stereo unspecified)	79	84	-25	nt
Cc1cc(C)cc(NC(=O)N2CCN(Cc3nc4cccnc4n3-c3ccccc3)CC2)c1	nt	nt	-19	107
COC(=O)c1ccc(NC(C)=O)cc1	76	87	-3	nt
Cc1c(C(=O)Nc2ccc3c(c2)OCO3)sc2ncnc(N3CCN(c4ccccn4)CC3)c12	nt	nt	-5	101
CC(=O)N1CCCSc2ccc(S(=O)(=O)NC(C)C)cc21	nt	nt	-8	98
CC1CN=C(NC(=O)c2ccccc2)S1 (stereo unspecified)	90	91	-12	nt
CCOc1ccc(N(Cc2nc3nc(C)cc(C)n3n2)C(=O)C(C)C)cc1	nt	nt	-11	103
Cn1c(C(=O)N2CCc3ccccc3C2)cc2c(=O)oc3ccccc3c21	nt	nt	11	101
COc1ccc(NC(=O)C2CCCN(C(=O)c3cnn(-c4ccc(F)cc4)c3-n3cccc3)C2)cc1 (stereo unspecified)	118	87	nt	107
COc1ccc(OC)c(CCCCc2cc(OC)ccc2OC)c1	88	90	-21	102
N#CNC1=NCN(Cc2ccccc2)CN1	112	85	3	98
COC(=O)c1cc2ccsc2n1CC(=O)Nc1ccc(C)cc1C	114	72	-15	100
COc1ccc(/C=C2\SC3C(C#N)=C(c4ccc(OC)cc4)C(C#N)=C(N)N3C2=O)cc1 (stereo unspecified)	93	91	-38	118
CC1Oc2ccc(S(=O)(=O)N3CCN(C(=O)c4cc5ccccc5[nH]4)CC3)cc2NC1=O (stereo unspecified)	nt	nt	-14	104
CCc1ccc(NC(=O)C2CCN(C(=O)c3ccc(F)cc3)CC2)cc1	90	70	nt	106
Cc1ccc(S(=O)(=O)N2CCCC2)cc1-c1nnc2c3ccccc3c(C)nn12	82	81	nt	96
CCOc1ccc(C2Nc3ccccc3NC3=C2C(=O)CCC3)cc1 (stereo unspecified)	88	79	nt	96
Cc1cccc(C(=O)Nc2sc3c(c2C(=O)N2CCCC2)CCC3)c1	96	96	-5	107
CCC1CN(S(=O)(=O)c2cc(-c3cc(C)no3)ccc2C)c2cc(C)ccc2O1 (stereo unspecified)	96	90	nt	102
CCOC(=O)N1CCN(C(=O)CCNS(=O)(=O)c2cc(Br)cnc2N)CC1	104	90	4	112
CCOC(CCn1c(SCc2cc(=O)n3ccccc3n2)nc2ccccc2c1=O)OCC	98	88	nt	101
CCOc1ccc(C(=O)Nc2ccc3nc(SCC(=O)N4CCCC4)sc3c2)cc1	92	94	-13	101
O=C(CCn1cnc2onc(-c3ccc(F)cc3)c2c1=O)N1CCN(c2ccccc2)CC1	127	78	nt	105
O=C1CCC(=O)N1c1ccc(C2CCCCC2)cc1	104	102	-13	104

Other entries follow.
SMILES	Sa growth inh	Sa growth inh second temp	HCMV NEC inh	GIV-Gai inh
COC(=O)CSC1=NC(=O)/C(=C/c2ccc(OC)cc2)S1	83	73	-42	nt
COc1ccc(COCC(O)CN2CCC(CN3C(=O)c4cccc5cccc(c45)C3=O)CC2)cc1OC (stereo unspecified)	nt	nt	-118	99
Cc1nn(CCSc2cc(Cl)ccc2Cl)c(=O)c(C#N)c1C	76	90	-26	nt
COC(=O)c1ccc(Cn2c(O)c(N=O)c3ccccc32)o1	104	63	nt	108
CC1CCN(CCCNC(=O)CN2C(=O)CSc3ccc(S(=O)(=O)N4CCCCC4)cc32)CC1	121	87	nt	101
N#CCSc1nnc(NC2CCCCC2)s1	97	90	-36	nt
CCOc1c(Br)cc(C(=O)N2CCC(C(N)=O)CC2)cc1OC	106	98	-1	nt
CCOC(=O)c1cc(NC(=O)Nc2nccs2)c(C)nc1C	97	97	1	nt
Fc1cccc(Cl)c1C=Nc1cccnc1	53	31	-34	nt
Cc1ccc(/C=N/N=C/c2ccc(C)s2)s1	70	106	-8	100
Cc1ccc(-c2c(C(=O)N3CCN(c4cc(Cl)ccc4C)CC3)oc(=O)c3ccccc23)cc1	103	93	-22	101
C=Cn1cccc1-c1ccccc1	84	65	-19	137
O=C(NCc1ccccc1)c1ccccc1O	105	81	10	nt
O=C(Cn1ncc(Cl)c(Cl)c1=O)Nc1ccc(Cl)cc1	97	90	-48	nt
COC(=O)c1sccc1NC(=O)N1Cc2c(sc3c2CCN(C)C3)-n2cccc2C1c1ccc(F)cc1 (stereo unspecified)	nt	nt	-14	110
Nc1ccccc1C(=O)NCc1c(F)cccc1Cl	113	97	-2	103
Cc1sc2ncnc(OCC(=O)N3CC(=O)Nc4ccccc43)c2c1C	116	98	-9	nt
Cc1cc(Cl)ccc1OCC(=O)OCC(=O)c1ccc[nH]1	93	97	-7	nt
Cc1c(Cl)cccc1NC(=O)c1c(O)c2ccccc2[nH]c1=O	nt	nt	-34	103
CCOC(=O)C1=C(C)OC2(O)c3ccccc3C(=O)C12O (stereo unspecified)	101	100	-4	80*

Complete entries from above. Order of values: Sa growth inh, Sa growth inh second temp, HCMV NEC inh, GIV-Gai inh
Record of CCOc1ccc(NC(=O)Nc2ccc3c(c2)N(C)C(=O)CS3)cc1 = nt, nt, -25, 109
Record of CC1Oc2ccc(S(=O)(=O)N3CCN(C(=O)c4cc5ccccc5[nH]4)CC3)cc2NC1=O (stereo unspecified) = nt, nt, -14, 104
Record of COC(=O)c1sc(SC)c(C#N)c1-c1ccco1 = 105, 95, -26, 105
Record of N#CNC1=NCN(Cc2ccccc2)CN1 = 112, 85, 3, 98

Additional compounds.
SMILES	Sa growth inh	Sa growth inh second temp	HCMV NEC inh	GIV-Gai inh
O=C(O)C(c1ccccc1)N1CCCC1 (stereo unspecified)	104	86	-3	106
CC(C)c1ccc(C2=CC(=O)C=CC2=O)cc1	62	4	-10	107
O=C(C1CCCN(S(=O)(=O)c2cccc3nonc23)C1)N1CCN(c2cccc(Cl)c2)CC1 (stereo unspecified)	109	93	-23	103
Cc1cc(C(F)(F)F)nc(SCC(=O)c2ccccc2)n1	118	80	-4	110
CSc1ccc(/C=C/C(=O)O)cc1	87	91	-62	nt
Cc1nn(-c2ccccc2C(=O)O)c(=O)c2ccccc12	86	94	7	102
CC(C)CCNC(=O)c1c[nH]c2ccc(S(=O)(=O)N3CCC4(CC3)OCCO4)cc2c1=O	103	83	nt	100
N#Cc1oc2ccccc2c1NC(=O)COC(=O)Cc1cccc(C(F)(F)F)c1	109	89	-2	nt
COCCCNC(=O)CC(c1cc(OC)c(OC)c(OC)c1)N1Cc2ccccc2C1=O (stereo unspecified)	135	93	nt	101

An excerpt from above in order of the GIV-Gai inh value, low to high:
smiles	GIV-Gai inh
CCOC(=O)c1c(NC(=O)c2cc3n(n2)C(C(F)(F)F)CC(c2ccccc2)N3)sc2c1CCC2 (stereo unspecified)	93
CCOc1ccc(C2Nc3ccccc3NC3=C2C(=O)CCC3)cc1 (stereo unspecified)	96
CCOC(=O)c1ccc(NC(=O)c2csc3c2CCCC3)cc1	98
COc1ccc(/C(N)=N/O)cc1OC1CCCC1	101
N#C/C(=C\Nc1cccc(C(F)(F)F)c1)c1nc2ccccc2[nH]1	103
